High-throughput results: PubChem, National Center for Advancing Translational Sciences (NCATS)
Lassa entry inh = blocks Lassa virus binding to or entry into cells. Lassa virus pseudotype entry inhibition, cell reporter; control for the full effect not named in the record. Potency, µM (series often up to 37.9 µM), inactives show at the top dose activity change, negative = inhibition, usual class: inhibitors. 1.2% of 300,000 active; active means well fitted inhibition curve with a large enough effect; inconclusive means small, poorly fitted or top-dose-only effect, or effect the other way; inactive means flat fitted curve, though single readings scatter; tested in HEK293 cells; also: % is scaled to controls: 0 for no effect and ±100 for the full control effect; nearly all actives have a fitted effect of over 50% in size; luciferase read-out
RE007 growth inh = less growth of the S. pombe RE007 Vpr strain | S. pombe RE007 Vpr strain, BacTiter-Glo ATP luminescence, 24 h; control for the full effect not named in the record | 0.21% of 360,000 active | AID 651644 | Potency, µM (series often up to 92.2 µM), without a hit: at the top dose activity change, negative = less growth; active = well fitted falling curve with a large enough effect; inconclusive = small, poorly fitted or top-dose-only effect; inactive = no such curve, though single readings can be large or run the other way;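 also: % is scaled to controls: 0 for no effect and ±100 for the full control effect; nearly all actives have a fitted effect of over 50% in size; the assay follows cell death caused by Vpr and the record does not say whether a fall means rescue or toxicity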
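Fission yeast strain RE007, carrying one chromosomally integrated HIV-1 vpr copy, was seeded at OD 0.01 in PMG+AL medium with 23 nL pinned compound. After 24 h at 30 °C and 99% humidity, viability was read by BacTiter-Glo luminescence.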
SARS PLP yeast = inhibitors of SARS-CoV papain-like protease in yeast; S. cerevisiae expressing SARS-CoV PLpro, growth rescue; control for the full effect not named in the record; Potency, µM (top dose mostly 32.9 µM), inactives show at the top dose activity, positive = growth rescue; 0.19% of 330,000 active; AID 485353; also: 0% is about no effect; nearly all actives have a fitted effect of over 55% in size; growth read by luminescence after 48 h
StopGo reporter = FMDV 2A StopGo reporter, luciferase signal. human cells with a luciferase reporter of 2A StopGo recoding; control for the full effect not named in the record. Potency, µM (titrated, usually from 57.9 µM), without a hit: top-dose signal change, negative = less light. 1.2% of 410,000 active; active = well fitted falling curve with a large enough effect; inconclusive = small, poorly fitted or top-dose-only effect; inactive = no such curve, though single readings can be large or run the other way; tested in HEK293T cells; also: % is scaled to controls: 0 for no effect and ±100 for the full control effect; nearly all actives have a fitted effect of over 45% in size; luciferase light after 4 h
NS1 inh = blocks influenza NS1 protein function; S. cerevisiae slowed by influenza A NS1, growth recovery by OD600; Potency, µM (titrated, usually from 46.1 µM), for inactives: top-dose activity, positive = more growth; 0.4% of 270,000 active; also: actives are rising curves; nearly all actives have a fitted effect of over 50% in size
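OD600 was taken as the measure of yeast growth restored by compound in an NS1-expressing S. cerevisiae strain. Cells had been washed out of glucose medium and diluted 1:100 into galactose -URA medium, pH 6.0.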
MARV entry inh = blocks Marburg virus binding to or entry into cells. AID 540276. Potency, µM (series often up to 37.8 µM), for inactives: top-dose activity change, negative = inhibition, actives largely listed as inhibitors. Marburg virus pseudotyped entry inhibition, cell reporter; control for the full effect not named in the record; about a third of the inactives were read at about 46 µM. 1.8% of 300,000 active; active = well fitted inhibition curve with a large enough effect; inconclusive = small, poorly fitted or top-dose-only effect, or effect the other way; inactive = flat fitted curve, though single readings scatter; tested in HEK293 cells; about a fifth of its hits are not listed in these tables; also: % is scaled to controls: 0 for no effect and ±100 for the full control effect; luciferase read-out
Cruzain inh Det = inhibitors of Trypanosoma cruzi cruzain with detergent | P25779 | purified cruzain, Z-FR-AMC fluorescence, 0.01% Triton | Potency, µM, without a hit: max response, negative = inhibition, hits mostly inhibitors | 0.43% of 200,000 active; active = well fitted curve in the direction sought with a large enough effect; inconclusive = small, poorly fitted or top-dose-only effect, or another doubt; inactive = no such curve, though single readings can be large; an effect the other way counts as inactive or inconclusive;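 also: plate controls were neutral wells for no effect and buffer without enzyme for full effect; nearly all actives have a fitted effect of over 40% in size; top concentration of the series not given in the record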
Target sequence (P25779 123-467 limits assumed): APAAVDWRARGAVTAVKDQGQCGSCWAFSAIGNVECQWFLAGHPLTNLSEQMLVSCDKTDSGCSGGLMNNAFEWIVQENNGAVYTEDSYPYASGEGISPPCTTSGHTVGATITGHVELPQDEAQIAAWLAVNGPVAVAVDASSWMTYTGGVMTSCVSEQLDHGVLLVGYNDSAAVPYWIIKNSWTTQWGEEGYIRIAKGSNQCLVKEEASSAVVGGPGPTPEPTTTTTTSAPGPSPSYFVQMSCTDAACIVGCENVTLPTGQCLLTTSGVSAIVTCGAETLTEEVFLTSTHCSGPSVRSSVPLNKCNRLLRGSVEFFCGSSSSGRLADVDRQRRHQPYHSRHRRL
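Z-FR-AMC hydrolysis (2 uM substrate) by cruzain (1.5 nM) monitored kinetically at ex 360/em 450 nm after 15 min room-temperature compound exposure; 0.01% Triton X-100, pH 5.5, 5 mM DTT.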
Cruzain noTriton = cruzain (T. cruzi) inhibition without detergent | purified cruzain, Z-FR-AMC fluorescence, no detergent | Potency, µM, for inactives: max response, negative = inhibition, usual class: inhibitors | P25779 | 2.3% of 200,000 active; active = well fitted curve in the direction sought with a large enough effect; inconclusive = small, poorly fitted or top-dose-only effect, or another doubt; inactive = no such curve, though single readings can be large; an effect the other way counts as inactive or inconclusive;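 also: plate controls were enzyme without inhibitor for no effect and buffer without enzyme for full effect; nearly all actives have a fitted effect of over 40% in size; top concentration of the series not given in the record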
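Detergent-free condition (0.00005% Triton X-100) in acetate buffer pH 5.5 with DTT. 1.5 nM enzyme and compound were pre-mixed 15 min, then 2 uM Z-FR-AMC substrate added; reaction progress from fluorescence change between first and third reads (60 s).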
Active calls of the source: *; ? = inconclusive; · = not tested or not shown; [ ] = remark or other dose. Unless noted, calls follow the shape of the dose curve; as a rule, active means well fitted rising curve with a large enough effect; inconclusive means small, poorly fitted or top-dose-only effect; inactive means no such curve, though single readings can be large or run the other way. Potency is read from the fitted curve at half-maximal effect.

structure,Lassa entry inh,RE007 growth inh,SARS PLP yeast,StopGo reporter,NS1 inh,MARV entry inh,Cruzain inh Det,Cruzain noTriton
N#Cc1ncccc1CCc1cccc(Cl)c1,-0.4%[46.1 µM],2.1%,·,24.2%,·,25.8%[46.1 µM],·,·
Cc1[nH][nH]c(=O)c1C(c1ccc(-c2cccc(Cl)c2)o1)c1c(C)[nH][nH]c1=O,10.0%,-7.5%,-0.1%,?,-1.5%,-3.7%[46.1 µM],·,·
COc1cc2c(cc1OC)C1(CCCC1)CNC2c1ccc([N+](=O)[O-])cc1 (configuration not stated),3.7%,1.2%,-0.4%,-13.0%,·,-0.3%[14.2 µM],·,·
CCCCC12CN3CC(C)(CN(C1)C3c1ccc(OCc3ccccc3)cc1)C2=O (configuration not stated),-17.3%[46.1 µM],·,·,0.0%,·,-6.7%[46.1 µM],1.6%,-4.1%
Cc1cc(/C=C(/C#N)C(=O)Nc2ccccc2)c(C)n1-c1cccnc1,?,-1.2%,4.2%,-28.2%,-13.1%,-12.1%,-9.4%,7.5%
CCOc1ccc(NC(=O)c2ccccc2CO)cc1,18.0%,-10.0%,-1.7%,47.9%[activator],-17.0%,22.9%[46.1 µM],4.6%,-6.7%
CCOc1ccc(C(=O)NCCc2ccccc2)cc1,8.2µM*,-3.4%,-9.2%,·,-91.5%,?,12.0%,5.6%
CCOC(=O)c1[nH]c(C)c(C(=O)OCC(=O)N(C)C2CCS(=O)(=O)C2)c1C (configuration not stated),5.1%,-3.0%,-2.5%,11.4%,·,11.2%[46.1 µM],·,·
O=C(CCS(=O)(=O)c1ccc(F)cc1)Nc1nc(-c2ccncc2)cs1,·,-27.0%,2.5%,?,-1.4%,·,·,·
Clc1cccc(CSc2nnc(-c3ccccn3)n2Cc2ccco2)c1,?,4.3%,-26.4%,?,-95.2%,?,-6.4%,3.1%
CC(C)CN(C(=O)Cn1c(Cl)nc2c1c(=O)n(C)c(=O)n2C)C1CCS(=O)(=O)C1 (configuration not stated),-3.5%,2.6%,4.1%,-8.6%,·,10.7%,·,·
Cc1cccc(NC(=O)Cn2nnc(-c3nc(-c4ccncc4)no3)c2N)c1,?,·,·,14.5%,·,·,-2.7%,8.6%
CCOc1ccc(NC(=O)CCCCCN2C(=O)[C@@H]3Cc4ccccc4CN3C2=O)cc1,·,0.1%,-2.9%,-25.7%,-1.6%,·,·,·
CC(C)NC(=O)CN(CCc1ccccc1)S(C)(=O)=O,-0.9%,-16.8%,-1.7%,·,-4.7%,4.3%,4.0%,-10.5%
Cc1c(/C(O)=C2/C(=O)C(=O)N(CCN3CCOCC3)C2c2cccs2)cnn1-c1ccccc1 (configuration not stated),-0.8%,5.9%,0.6%,25.0%,-1.2%,?,-5.2%,7.7%
COc1ccc(-c2cccc(C(=O)NCC(=O)O)c2)cc1,9.3%,1.0%,-1.3%,50.3%[activator],-119.9%,14.2%,0.6%,-4.1%
O=C(c1cccc(Cl)c1)N(Cc1ccco1)C1CCS(=O)(=O)C1 (configuration not stated),·,-10.3%,-3.4%,0.0%,-10.9%,·,·,·
COc1ccc(-c2cc(-c3nnc(-c4ccncc4)o3)c3ccccc3n2)cc1,13.1%,6.9%,1.2%,-21.9%,11.0%,-2.7%,-5.8%,?
COc1ccc(C(C)(C)C)cc1NC(=O)c1ccc[n+]([O-])c1,-4.4%[46.1 µM],3.5%,-4.7%,3.0%,-3.6%,?,·,·
CC1CN(c2ccc([N+](=O)[O-])c(NCCOc3ccccc3)c2)CC(C)N1 (configuration not stated),7.9%[46.1 µM],-6.9%,-1.5%,-14.3%,-8.4%,?,·,·
CCOc1ccc(NC(=O)CSc2nnnn2CC(=O)O)cc1,5.2%,11.5%,17.8%,-3.5%,-0.6%,15.5%,0.3%,4.8%
O=C(CCN1C(=O)/C(=C/c2ccccc2Cl)SC1=S)Nc1cccnc1,·,-4.2%,-2.4%,?,-2.5%,·,·,·
COc1ccc2ccccc2c1CN1CCN(C(=O)c2ccccc2)CC1,?,-9.8%,-2.2%,?,-6.6%,?,-4.1%,9.7%
CCCNc1nc(NCc2ccccc2OC)c2cnn(C)c2n1,-9.9%[46.1 µM],·,·,?,·,·,-6.3%,-0.8%
CCN(CC)CCCNc1oc(-c2ccccc2[N+](=O)[O-])nc1C#N,·,14.7%,-1.0%,8.3%,-1.2%,·,·,·
Cc1ccc2c(c1)cc1c(=O)n(Cc3cccc(Cl)c3)nc(C)n12,22.9%[46.1 µM],·,·,-10.4%,·,4.8%[46.1 µM],-2.5%,1.2%
Cc1ccc(N2CCN(C(=O)c3c(C)oc4ncn(C)c(=O)c34)CC2)c(C)c1,1.1%[46.1 µM],·,·,-15.1%,·,·,-0.9%,6.3%
COc1ccc(NC(=O)NCc2ccccn2)cc1,10.9%,-15.6%,8.3%,34.3%[activator],6.2%,17.3%,0.0%,-5.3%
CC1(C)CC(NC(=O)COc2ccc3ccc(=O)oc3c2)CC(C)(C)N1,·,-4.2%,1.1%,5.2%,-2.7%,·,·,·
Cc1csc2c(=O)n3c(nc12)CCCCC3,8.6%,-19.4%,0.0%,0.3%,-8.2%,1.1%,4.7%,-10.8%
CC(C)C1C(C#N)=C(N)Oc2n[nH]c(-c3ccccc3)c21 (configuration not stated),13.9%,-9.5%,6.2%,-19.1%,0.4%,?,-7.7%,-25.8%
CCn1c(SCC(N)=O)nc2sc3c(c2c1=O)CCCC3,2.1%,-2.3%,9.9%,-9.8%,7.9%,4.6%,-1.4%,-3.5%
COc1ccc(Cl)cc1NC(=O)Nc1ccc(C(=O)N2CCOCC2)cc1,?,-18.5%,3.3%,-1.4%,6.8%,15.5%,·,·
Cc1c(NC(=O)C2CCN(S(=O)(=O)c3ccc(Cl)cc3)CC2)c(=O)n(-c2ccccc2)n1C,1.1%,-10.3%,-0.4%,-18.3%,-3.9%,1.8%,2.0%,0.6%
Cc1ccc(CNC(=O)c2nn(C)c(C)c2[N+](=O)[O-])cc1,0.3%,?,15.9%,-7.3%,9.5%,9.8%,-0.9%,-1.3%
COCCCNC(=O)c1ccccc1N(Cc1ccccc1)S(=O)(=O)c1ccc(OC)cc1,·,-9.0%,-5.4%,50.2%[activator],-4.5%,·,·,·
Cc1ccc(P(=O)(CC(=O)O)c2ccc(C)cc2)cc1,2.3%,2.6%,1.5%,4.9%,-0.5%,-10.4%,3.1%,-2.7%
COc1ccccc1OCCSc1nnnn1-c1ccc(C)cc1,·,7.1%,-17.8%,12.4%,-91.4%,·,2.3%,3.1%
COc1ccc(/C=N/NC(=O)CO/N=C(\C)c2cccs2)cc1,5.0%,-0.9%,2.7%,26.2%,-6.4%,7.7%,-2.9%,-2.6%
O=C1CSC(=Nc2cccc(Cl)c2Cl)N1Cc1cccnc1,-23.4%,16.7%,-0.6%,?,-34.5%,?,·,·
COC(=O)[C@@]1(Cc2ccc(OC)cc2)[C@H]2c3cc(C(=O)N(C)C)n(Cc4c(CO)[nH]cc(C)c4=O)c3C[C@H]2CN1C(=O)c1ccccc1,·,0.5%,·,-5.4%,·,·,-1.2%,?
CCCN(C(=O)c1cn(-c2ccccc2)nc1-c1ccc(OC)cc1)C1CCS(=O)(=O)C1 (configuration not stated),3.3%,-2.8%,-0.4%,-9.0%,·,-19.8%,·,·
CC1CCN(c2nc3c(-c4cccc(Br)c4)nnn3c3ccccc23)CC1,20.3%[46.1 µM],·,·,10.1%,·,-26.6%[46.1 µM],0.2%,-8.2%
CCCOc1ccc(C2C(C(=O)c3ccc(C)o3)=C(O)C(=O)N2Cc2cccnc2)cc1 (configuration not stated),·,·,-0.4%,·,11.5%,2.8%,-2.4%,8.2%
Cc1ccc(C)c(Nc2nc3ccccc3n3cnnc23)c1,·,7.1%,-0.7%,-22.7%,0.7%,·,·,·
C=CCN(c1ccccc1Cl)S(=O)(=O)c1cccc(C(=O)NCCc2ccc(OC)cc2)c1,11.6µM*,·,-11.4%,-28.2%,20.7%,?,-3.4%,?
O=C(CN1CCOCC1)N1CCc2ccccc2C(c2ccccc2)C1 (configuration not stated),1.8%,-0.2%,6.8%,-7.3%,-16.4%,?,5.0%,7.5%
COc1ccc(S(=O)(=O)N(CC(=O)N2CCN(C)CC2)c2ccccc2)cc1OC,13.9%,4.1%,2.4%,12.9%,-2.5%,2.5%,3.9%,-0.8%
CNC(=O)c1sc(N2N=C3/C(=C\c4ccccc4)CCCC3C2c2ccccc2)nc1C (configuration not stated),?,-1.7%,·,31.6µM*,·,?,·,·
COc1ccc(C(C(=O)NCC2CCCO2)N(C(=O)CNC(=O)c2cccs2)c2ccc(C)cc2)cc1OC (configuration not stated),-0.1%[46.1 µM],33.6%,0.3%,-12.6%,-6.2%,14.5%,·,·
O=C(Oc1cccc2c(O)cccc12)c1ccco1,27.3%[46.1 µM],-15.8%,·,-3.6%,·,?,·,·
O=P(O)(O)COc1ccccc1O,0.8%,13.0%,3.0%,·,-7.9%,-5.2%,3.8%,7.0%
CCOCCn1c(CN(Cc2ccccc2)Cc2ccccc2)nc2c1c(=O)n(C)c(=O)n2C,·,20.0%,-7.3%,?,-91.6%,-2.7%,-6.8%,?
COc1ccc(CNC(=O)CN2C(=O)NC(c3ccccc3)(c3ccccc3)C2=O)cc1OC,0.0%,4.7%,·,-26.9%,·,-11.7%,·,·
Cc1ccc(C)c(CSc2nnc([C@@H]3CCCN3)o2)c1,-1.3%[46.1 µM],-7.0%,-3.8%,-4.2%,5.3%,-10.3%[46.1 µM],·,·
